# High-throughput results as filed in PubChem.
# Tgondii IFNg: T. gondii growth inhibition under IFN-gamma; Toxoplasma gondii growth in IFN-gamma-treated host cells; active compounds read low; reference of the scale not given here; AID 1259416; hit rate 3.8% among 69,000; activity change, negative = inhibition, %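 (about 20 µM by stock and volumes)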;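 active = below -70%; inconclusive = fit judged invalid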;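 note: host cells are HeLa cells infected with Toxoplasma gondii; parasite growth read as luciferase light; one replicate is shown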
# * marks the source's active call; other numbers are inactive results; i = inactive; ? = inconclusive; & = joins results of further samples. Only part of the results is shown; rates above refer to the full screens.
# The first 7 compounds, to show the layout:
canonical_smiles | Tgondii IFNg
O=C(O)c1ccccc1C1CCN(C(=O)CCc2cccnc2)C1 (stereo not drawn) | -5
COc1ccccc1-c1[nH]n2c(=O)cc(CC(C)n3cccn3)nc2c1C (stereo not drawn) | 1
CS(=O)(=O)N1[C@H](CO)[C@H](c2ccc(C#Cc3cccc(F)c3)cc2)[C@@H]1C#N | 5
COc1ccc(-c2nc(C)c(CCNC(=O)c3cccc(OC)c3)s2)cc1 | i
COc1cc(N2CC[C@@H](OC)[C@@H]2Cc2ccccc2)ncn1 | i
COc1ccccc1C1CCN(C(=O)c2cccnc2Sc2ccc(C)cc2)CC1 | -6
CCN1[C@@H]2Cn3c(ccc(-c4ccncc4)c3=O)[C@H]1[C@@H](C(=O)NCCc1cn(C)cn1)[C@@H]2CO | -42

# The whole of this part (from the top)
canonical_smiles | Tgondii IFNg
O=C(O)c1ccccc1C1CCN(C(=O)CCc2cccnc2)C1 (stereo not drawn) | -5
COc1ccccc1-c1[nH]n2c(=O)cc(CC(C)n3cccn3)nc2c1C (stereo not drawn) | 1
CS(=O)(=O)N1[C@H](CO)[C@H](c2ccc(C#Cc3cccc(F)c3)cc2)[C@@H]1C#N | 5
COc1ccc(-c2nc(C)c(CCNC(=O)c3cccc(OC)c3)s2)cc1 | i
COc1cc(N2CC[C@@H](OC)[C@@H]2Cc2ccccc2)ncn1 | i
COc1ccccc1C1CCN(C(=O)c2cccnc2Sc2ccc(C)cc2)CC1 | -6
CCN1[C@@H]2Cn3c(ccc(-c4ccncc4)c3=O)[C@H]1[C@@H](C(=O)NCCc1cn(C)cn1)[C@@H]2CO | -42
Cn1cnc2c(N3CCOCC3)nc(C3CCN(CC4CC4)CC3)cc21 | 6
CCOc1ccccc1N1COc2ccc3c(C)cc(=O)oc3c2C1 | -11
O=C1CCC2(CCN(Cc3ccoc3)CC2)N1Cc1cccnc1 | 4
Cc1ccc2c(c1C)-n1cccc1C1(CCN(C(=O)C3CCCCC3)CC1)N2 | -1
CCOc1cc(CN2CCc3c(nc(-c4cccnc4)[nH]c3=O)C2)ccc1OCC(N)=O | 1
Cc1noc(C)c1S(=O)(=O)Nc1ccc2c(c1)C(=O)N([C@@H](C)CO)C[C@H](C)[C@H](CN(C)C(=O)Nc1cccc3ccccc13)OCCCC[C@H](C)O2 | 76
COCCN(C)C(=O)C1CC2(CO1)c1ccccc1CN2Cc1cccc(OC)c1 (stereo not drawn) | 2
CCn1cnnc1CCNC(=O)c1ccc2[nH]c3c(c2c1)CCCC3 | -17
CNc1cc(C)nc(N2[C@@H]3CC[C@H]2CN(C)C(=O)C3)n1 | -1
c1cc2c(cc1OCC1CCN(Cc3cc4n(n3)CCNC4)CC1)CCC2 | -87*
CCCCCCn1c(=O)c2c(ncn2C)n(C)c1=O | 16
COc1ccc(C(C)NC(=O)c2c3c(nn2C)CCCC3)cc1F (stereo not drawn) | -77*
COc1ccc2cc(CN3CCN(Cc4ccncc4)CC3)c(=O)[nH]c2c1 | -2
C=CCN1C(=O)C2(NCCc3c2[nH]c2ccc(OC)cc32)c2cc(Br)ccc21 (stereo not drawn) | 47
C=CCOCC1CN(C(=O)Cc2ccsc2)Cc2ccnn2C1 (stereo not drawn) | -6
Cc1ccc(S(=O)(=O)Nc2ccc3c(c2)C(=O)N([C@@H](C)CO)C[C@@H](C)[C@@H](CN(C)S(=O)(=O)c2cccs2)OCCCC[C@@H](C)O3)cc1 | -99*
Cc1oc(-c2ccccc2Cl)nc1CN(C)Cc1ccccc1 | 2
CCc1nnc(CNC(=O)C2CC(=O)N(CC(C)C)C2)s1 (stereo not drawn) | -57
Cc1cc2cc(C(=O)NCCSCc3nc[nH]c3C)ccc2o1 | 5
c1ccc2c(c1)ncn2CN1CCCCC1 | -6
Cc1ccc(S(=O)(=O)N[C@H]2CC[C@@H](CC(=O)NCc3ccncn3)O[C@@H]2CO)cc1 | 45
N#C[C@H]1[C@H](c2ccccc2C2=CCCCC2)[C@H](CO)N1S(=O)(=O)c1ccccc1 | -27
CN(C)Cc1ccc(S(=O)(=O)n2ccc(/C=C/C(=O)NO)c2)cc1 | -81*
CN(C)S(=O)(=O)c1ccc2c(c1)cc(C(=O)NCc1cccc(F)c1)n2Cc1ccncc1 | 104
COc1ccccc1NC(=O)N1CCCCN2[C@H](CO)[C@@H](c3ccc(-c4cccc(C#N)c4)cc3)[C@H]2C1 | -34
COc1ccc(C(=O)N2CCC(OCC3=CCCN(C)C3)CC2)cc1 | 3
COc1ccc2c3c([nH]c2c1)[C@H](CO)N(Cc1ccncc1)CC31CN(Cc2ccc(-c3ccccn3)cc2)C1 | 67
CCC(C)(C)NC(=O)C(=O)N1CCC2(CC1)CN(C)CCN2C | 57
CN(C)C(=O)c1cc2c(c(-c3cccc(C4=CCCCC4)c3)n1)[C@@H](CCO)N(S(C)(=O)=O)C2 | 78
CN(C)S(=O)(=O)c1cc(S(=O)(=O)N(C)C)c(Cl)s1 | -32
CSc1cccc(NC(=O)Cn2ncc3c(N4CCCC4)ncnc32)c1 | 41
Cn1c(C(=O)N(C/C=C/c2ccccc2)CCO)cc2ccccc21 | 7
COc1ccc(S(=O)(=O)N2CCC(c3nc(C(=O)N4CCOCC4)c(C)o3)CC2)cc1 | 90
CNS(=O)(=O)c1ccc(CN(Cc2ccsc2)Cc2ccco2)cc1 | 3
CCOC(=O)c1nn(Cc2ccccc2)c2c1CN(C(=O)CCc1scnc1C)CC2 | -50
Cc1noc(C)c1C(=O)NC(Cc1ccsc1)c1cccnc1 (stereo not drawn) | 24
Cc1cccc(CN2CCCC(O)(CN(C)Cc3ccc4nonc4c3)C2=O)c1 (stereo not drawn) | -12
CCc1ccc(-c2nccn2Cc2cc(C)no2)o1 | 0

# An excerpt from above in order of molar mass, high to low:
canonical_smiles | Tgondii IFNg
COc1ccc2c3c([nH]c2c1)[C@H](CO)N(Cc1ccncc1)CC31CN(Cc2ccc(-c3ccccn3)cc2)C1 | 67
COc1ccc(S(=O)(=O)N2CCC(c3nc(C(=O)N4CCOCC4)c(C)o3)CC2)cc1 | 90
Cc1noc(C)c1C(=O)NC(Cc1ccsc1)c1cccnc1 (stereo not drawn) | 24

# Continued.
canonical_smiles | Tgondii IFNg
COc1ccc(OC)c(CN(C(=O)c2ccc(C)cc2)C2(C(=O)NCc3ccccc3)CCN(C(C)=O)CC2)c1 | -4
CN1C(=O)c2cc(NC(=O)c3ccc4c(c3)OCO4)ccc2OC[C@H]2O[C@H](CC(=O)O)CC[C@@H]21 | -11
COc1ccc(-c2ncccc2NC(=O)C(C)C)c2ccc(C)nc12 | 5
O=C1NCCN1CCNS(=O)(=O)c1cc(Cl)sc1Cl | -41
CC(C(=O)O)c1ccc(CC2CCCC2=O)cc1 (stereo not drawn) | 0&8
O=C(CN1CCC(c2ccccc2)CC1)Nc1cnn(Cc2cccc(F)c2)c1 | -14
Cc1cnc2cc(C3CCN(C(=O)c4ccncc4)CC3)[nH]c2n1 | -26
COc1ccc(OC)c2c(=O)cc(C(=O)O)[nH]c12 | -53
CCC(NC(=O)C1CCN(C(C)=O)CC1)c1ncccc1C (stereo not drawn) | 72
O=C(Nc1ncc2c(n1)CC(c1ccco1)CC2=O)c1ccco1 (stereo not drawn) | 19
CC1=C(C(=O)N(C)Cc2ccc3nsnc3c2)C(C)NC(=O)N1 (stereo not drawn) | -31
Cc1oc(-c2cc3c(cc2Cl)OCO3)nc1CN1CCCCC1CCn1cccn1 (stereo not drawn) | -1
COCC(=O)Nc1ccccc1-c1cccc(Cl)c1Cl | -11
CCN(CC)CCCNC(=O)c1ccc(-c2nc(CN3CCN(c4ccccc4)CC3)c(C)o2)cc1 | -104*
Cc1ccc2nc(-c3cccc(NC(=O)CN(C)Cc4ccccn4)c3)[nH]c2c1 | 152
COCCc1noc(CN2CCCC2c2ccccn2)n1 (stereo not drawn) | 8
COc1ccc(NC(=O)c2cccc(CN3CCCC(O)C3)c2)cn1 (stereo not drawn) | 5
CC(C)N1CCNC(=O)C1CC(=O)N1CCc2[nH]c3ccc(Cl)cc3c2C1 (stereo not drawn) | 4
COC(=O)[C@@H]1C[C@@H](NC(=O)c2c(C)nc3sccn23)CN1C | -15
COCCN1CC(c2cc(=O)n3[nH]c(-c4cccs4)c(C)c3n2)CC1=O (stereo not drawn) | 24
CN(Cc1cn[nH]c1-c1ccccc1)C(=O)[C@H]1C[C@@H]2C=C[C@H]1C2 | -11
O=C(NCc1cccc(F)c1)c1nc2c(o1)CN(c1ncccn1)C2 | -61
NCC(c1ccco1)N1CCCCCC1 (stereo not drawn) | 12
Cc1cccc(C(=O)N2CCC3(CC2)CC(COCC2CC2)N(C)C3)n1 (stereo not drawn) | -15
Cc1ccccc1S(=O)(=O)N1C[C@@H](O)COC[C@H]2O[C@H](CC(=O)N3CCCCC3)CC[C@@H]21 | -10
COc1ccc(-c2nc(Nc3ccc(F)cc3)c3ccccc3n2)cc1 | -28
O=C(Cn1c(=Nc2ccc(F)cc2)oc2ccccc2c1=O)c1ccccc1 | -15
CCCCN(C(=O)CN1CCN(c2nccs2)CC1)C1CCS(=O)(=O)C1 (stereo not drawn) | -8
CC(=O)NC1[C@@H](O)OC(CO)[C@@H](O)[C@H]1O (stereo partly drawn) | 39
CCN(CC)CCCNC(=O)c1ccc2ccc(N3CCC(C)CC3)n2c1 | -46
COc1cccc(CC2CN(C(=O)c3ccc[nH]3)CCO2)c1 (stereo not drawn) | -14
COc1ccc(-c2cc(N)n(C)n2)cc1 | 111
Cn1cc(-c2ccccc2C(N)=O)c(=O)c2ccccc21 | 9
O=C(Cc1ccc(F)cc1F)NCc1cnn2ccccc12 | 97
Cc1ccc2c(c1)c(-c1ccccc1)nc1nnnn12 | -6
Cc1ccc(S(=O)(=O)N(C)c2c(C)ccc(S(=O)(=O)n3nc(C)cc3C)c2C)cc1 | 2
O=C(NCCN1CCC(O)(c2cccc(F)c2)CC1)c1cccs1 | -16
CCOc1ccc(-c2nc(CN3CCN(C(=O)Nc4cc(C)cc(C)c4)CC3)c(C)o2)cc1 | 1
O=C(Cc1ccccc1O)N1CCC(N2CCCC(C(=O)N3CCCC3)C2)CC1 (stereo not drawn) | 5
CO/N=C(\C(=O)N[C@@H]1C(=O)N2C(C(=O)O)=C(COC(C)=O)CS[C@H]12)c1csc(N)n1 (stereo in doubt) | -24
CCCN(C/C=C/c1ccccc1)C(=O)Cc1nc(C)sc1C | 4
CO[C@H]1C(=O)[C@@]2(C)[C@H]([C@@H](OC(=O)c3ccccc3)[C@@]3(O)C[C@H](OC(=O)[C@H](O)[C@@H](NC(=O)OC(C)(C)C)c4ccccc4)C(C)=C1C3(C)C)[C@]1(OC(C)=O)CO[C@@H]1C[C@H]2OC | -79*
CCCNC(=O)C1CC(=O)N(CCc2c[nH]c3ccc(Cl)cc23)C1 (stereo not drawn) | i
O=C(Cn1ncc2c(N3CCN(c4ccccc4)CC3)ncnc21)Nc1ccc(OC(F)(F)F)cc1 | -52
Cc1ccc(SCC(=O)NC(C)C)cc1 | -22
O=C(NCCc1csc(-c2cccc(F)c2)n1)C(=O)Nc1cccc(Cl)c1 | -33
O=C(NCC1CCCOC1)C1(Cc2cc(-c3ccc(F)cc3F)no2)CCOCC1 (stereo not drawn) | 66
O=C(Cn1ncc2c(N3CCN(c4ccccn4)CC3)ncnc21)Nc1ccc(Br)cc1 | -15
COc1c(-c2coc3cc4c(cc3c2=O)CC(OC(C)=O)C(C)(C)O4)ccc2c1C=CC(C)(C)O2 (stereo not drawn) | ?
Cc1oc(-c2ccc(NC(=O)C3CC3)cc2)nc1Cn1cccn1 | -13
O=c1[nH]cc(-c2ccc(Cl)cc2)cc1CNc1ccccc1OCCN1CCOCC1 | 344
COc1ccc(NC(=O)CC(c2ccccc2)c2ccco2)cc1 (stereo not drawn) | 15
CCCc1cc(C(=O)N2C[C@@H](N)C[C@H]2C(=O)NC(C)C)ccn1 | 0
Cc1cnc2n1CCN(C)C21CCN(C(=O)c2ccco2)CC1 | 4
O=C(Cn1ncc2c(N3CCOCC3)ncnc21)NC1CCCCCC1 | 37
COCCc1nnc(NS(=O)(=O)c2ccc3c(c2)n(C)c(=O)n3C)s1 | 10
Cc1ccc2c(n1)N(C)CCN(S(=O)(=O)c1ccc(C)c(F)c1)C2 | 7
C/C=C/c1ccc([C@@H]2[C@H](CO)N(C(=O)C3CCCC3)C23CN(S(C)(=O)=O)C3)cc1 | 99
C1CC(CN2CCC3(CCCN3CC3CC3)CC2)C1 | 2
O=C(C[C@H]1CC[C@@H]2[C@H](COC[C@H](O)CN2CCC(F)(F)F)O1)NCC1CC1 | -36

# The list continues.
canonical_smiles | Tgondii IFNg
CC1(C)C(=O)NC(=O)N1CC(=O)N1CC(c2cccnc2)C1 | 1
COc1ccccc1-c1nc(Cn2nnc(C(=O)Nc3ccc(C)cc3Cl)c2C)c(C)o1 | 24
CC(C)Cn1cncc1CN1CCCN(Cc2ccc(F)cc2)C(C(C)C)C1 (stereo not drawn) | -9
COCC(=O)N1[C@H](CO)[C@H](c2ccccc2-c2cccc(C)c2)[C@@H]1C#N | -48
COC(=O)[C@@H]1[C@@H](CO)[C@@H]2Cn3c(ccc(-c4ccncc4)c3=O)[C@@H]2N1Cc1ccccc1F | 5
CCOc1ccccc1-c1nc(Cn2c(=O)c3cccnc3n(-c3ccc(OC)cc3)c2=O)c(C)o1 | 2
CO[C@@H]1CN(C)C(=O)c2ccc(NC(=O)c3nc4ccccc4s3)cc2OC[C@@H](C)N(Cc2cccnc2)C[C@@H]1C | -112*
O=C(c1cccs1)N1CCC2(CC1)Nc1ccccc1-n1cccc12 | 33
O=S(=O)(c1ccc(F)cc1)N1CCCCN2[C@@H](CO)[C@H](c3ccc(-c4cncnc4)cc3)[C@@H]2C1 | 3
O=S(=O)(N1CCCCC1)N1CCc2nc(C3CCNCC3)ncc2C1 | -9
CCCOC1CCCN(C(=O)C(=O)N(C)c2ccccc2)C1 (stereo not drawn) | -1
